BJeLR viability = BJeLR cell viability loss; BJeLR (HRASV12) viability, CellTiter-Glo ATP luminescence, 48 h; reference of the scale not given here; inhibition, % (concentration not given with the values); 300,000 compounds, 0.17% hits;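 active means replicate mean above 50%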;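 further: 50 nL library stock added to about 25 µL; numbers are from one replicate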
Autofluor counter = flagged as autofluorescent in microsphere protease counterscreen; compound autofluorescence counterscreen, microsphere flow cytometry; stronger effect = higher value; fluorescence intensity (test concentration not listed); 360,000 compounds, 3.1% hits;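 active means at least 3 SD above the mean of all compounds, about 16000 in these data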;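 further: 100 nL of 1 mM stock went into each well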
Sa ugtP lethal = kills S. aureus RN4220 lacking UgtP; S. aureus RN4220 ugtP deletion, OD600 growth, 16 h; some inactives read as strong as hits; growth inhibition, % (test concentration not listed); 330,000 compounds, 0.54% hits;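 active means z-score under -3 and OD600 up to 0.15 on both plates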;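 further: plate controls were untreated wells for no effect and antibiotic for full effect; wells of about 80 µL received 100 nL stock; the first replicate is given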
RN4220 kill = S. aureus RN4220 growth inhibition; inhibition, % (test concentration not listed); AID 1259311; 330,000 compounds, 0.33% hits; OD600, 16 h;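 active means z-score of -3 or lower and OD600 up to 0.18 on both plates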;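 further: plate controls were untreated cells for no effect and reference antibiotic for full effect; stock transfer was 100 nL into about 80 µL; one replicate is shown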
PrP 5UTR inh = suppresses PrP 5' UTR mRNA reporter expression; cell-based PrP 5' UTR mRNA reporter, plate reader; inhibition, % (concentration not given with the values); 340,000 compounds, 0.35% hits;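 active means every replicate at 50% or more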;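 further: 0 = median of the neutral control wells; tested in H4 reporter cells; numbers are from one replicate; inactives centre near -14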
Mtb hypoxia inh = inhibitors of hypoxia-regulated fluorescent reporter in Mycobacterium tuberculosis; AID 1159583; 300,000 compounds, 0.1% hits; M. tuberculosis hypoxia-regulated fluorescent reporter, fluorescence; fluorescence inhibition, % (no concentration beside the values);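 active means 35 to 45% if threefold the growth effect, above 45% if 1.5-fold the growth effect; inactive means the rest, general growth blockers included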;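 further: wells of about 50 µL received 100 nL stock; 0% = vehicle wells and 100% = reference inhibitor wells; whole bacteria with a GFP reporter of the hypoxia response; strong numbers were not always called active; many hits fall short of the cut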
Mtb hypoxia inh growth = second read-out of Mtb hypoxia inh, no call of its own (marks repeat the call); growth inhibition, %; measured here: M. tuberculosis growth (absorbance);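 0% = vehicle and 100% = reference antibiotic; read after six days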
* = called active by the depositor; . = no result given.

SMILES | BJeLR viability | Autofluor counter | Sa ugtP lethal | RN4220 kill | PrP 5UTR inh | Mtb hypoxia inh | Mtb hypoxia inh growth
COC(=O)CNC(=O)c1ccc(F)cc1 | -2 | 4330 | -1 | 3.6 | . | -4 | -8
CCNC(=S)Nc1ccc(N(c2ccccc2)C(C)C)cc1 | -9 | 11761 | -17 | 1.8 | -12 | 2 | 4
CCCc1cc(C(=O)Nc2cc(C)on2)no1 | -25 | 5070 | -4 | 5.7 | 1 | -1 | 0
Cn1c(=O)[nH]c(=O)c2c1nc(SCCO)n2CCCc1ccccc1 | -9 | 3766 | 6 | 5.0 | 6 | 22 | 5
c1ccc(COc2ccc(OCCCCN3CCCCC3)cc2)cc1 | -5 | 2952 | 26 | 1.0 | -37 | -6 | 11
O=C(Nc1ccccc1N1CCCC1)C1=COCCO1 | . | 3788 | 7 | 7.6 | -32 | 12 | 6
COC(=O)NC(=C(Cl)Cl)S(=O)(=O)c1ccccc1 | . | 2371 | -3 | 5.9 | -24 | . | .
COC(=O)C1CSC2c3ccccc3C(=O)N12 (stereo not drawn) | -5 | 4552 | 7 | 1.4 | -14 | 7 | -16
O=C(CSc1nc2ncc(Cl)cc2[nH]1)N1CCC(Cc2ccccc2)CC1 | . | 6467 | 10 | 4.4 | 0 | -3 | -6
Cc1ccc(NC(=O)Cn2nnc(-c3ccccc3-n3cnnn3)n2)c(C)c1 | -5 | 4976 | -3 | -5.5 | -23 | 2 | 5
CC1CCN(C(=O)Cn2c3ccccc3c3nc4n(c(=O)c32)CCS4)CC1 | -5 | 5767 | 6 | 0.2 | -10 | -13 | 4
CCOC(=O)c1[nH]c(C)c(/C(O)=C2\C(=O)C(=O)N(CCCN3CCOCC3)C2c2cccs2)c1C (stereo not drawn) | -1 | 3802 | 13 | 1.6 | -9 | 7 | -1
CC1(C)Oc2ccc3ccc(=O)oc3c2[C@@H](O)[C@@H]1O | . | 4130 | -4 | -6.7 | -3 | 5 | 5
Cc1ccc(N(Cc2ccccc2)C(=O)c2cc(S(=O)(=O)N3CCOCC3)ccc2Cl)cc1 | -10 | 6645 | -3 | 2.1 | -46 | 11 | 2
O=C(NN=Cc1cc([N+](=O)[O-])ccc1O)c1cccc2cc[nH]c12 | . | . | 43 | 59 | . | -2 | 1
COc1ccc2c(c1)c1nc3n(c(=O)c1n2CC(=O)Nc1cc(C)[nH]n1)CCS3 | 6 | . | 1 | 5.4 | . | 1 | -2
CCOc1ccccc1-c1nc(CN2CCCC2c2nccs2)c(C)o1 (stereo not drawn) | -1 | 5346 | -4 | 0.0 | -6 | -1 | 0
CN(C)c1ccc(C=NN2CCN(c3ccccn3)CC2)cc1 | . | . | 5 | 1.2 | . | 6 | 5
Cc1ccc(OCCNC(=O)Cc2ccc(F)cc2)cc1 | 3 | 4400 | 2 | 5.0 | -17 | 15 | 0
CC(=O)N1c2ccc(S(=O)(=O)N3CCCC(C(=O)NCc4ccc(Cl)cc4)C3)cc2CC1C (stereo not drawn) | -1 | 5482 | 6 | 4.5 | -22 | -4 | 3

Arranged by length of the SMILES (largest number first): five of the compounds above.
SMILES | BJeLR viability | Autofluor counter | Sa ugtP lethal | RN4220 kill | PrP 5UTR inh | Mtb hypoxia inh | Mtb hypoxia inh growth
Cc1ccc(NC(=O)Cn2nnc(-c3ccccc3-n3cnnn3)n2)c(C)c1 | -5 | 4976 | -3 | -5.5 | -23 | 2 | 5
O=C(CSc1nc2ncc(Cl)cc2[nH]1)N1CCC(Cc2ccccc2)CC1 | . | 6467 | 10 | 4.4 | 0 | -3 | -6
CCOc1ccccc1-c1nc(CN2CCCC2c2nccs2)c(C)o1 (stereo not drawn) | -1 | 5346 | -4 | 0.0 | -6 | -1 | 0
CN(C)c1ccc(C=NN2CCN(c3ccccn3)CC2)cc1 | . | . | 5 | 1.2 | . | 6 | 5
CCCc1cc(C(=O)Nc2cc(C)on2)no1 | -25 | 5070 | -4 | 5.7 | 1 | -1 | 0

Next part:
SMILES | BJeLR viability | Autofluor counter | Sa ugtP lethal | RN4220 kill | PrP 5UTR inh | Mtb hypoxia inh | Mtb hypoxia inh growth
O=C(NCCO)c1nc(C(=O)c2ccc(Cl)cc2)c2ccccc2n1 | . | 4043 | -4 | 9.8 | -5 | 17 | 9
CC1=Nn2c(nnc2-c2ccccn2)SC1 | 1 | 6003 | -7 | -3.6 | -24 | 1 | 8
O=C(CCc1ccc(S(=O)(=O)N2CCOCC2)cc1)OCC(=O)c1ccccc1 | . | 3759 | -6 | 6.5 | -14 | 13 | 8
COc1ccc(NS(=O)(=O)c2ccc(C(=O)N(C)Cc3cccs3)cc2)cc1 | . | 6981 | -1 | 0.2 | 8 | -10 | 6
C=CCn1c(=O)c2c(nc3n2CCS3)n(C)c1=O | -4 | 9069 | 3 | 6.0 | -4 | -3 | -3
CC1CN(c2ccc([N+](=O)[O-])cc2Cl)CCN1S(C)(=O)=O (stereo not drawn) | 9 | 3322 | -8 | -2.1 | -2 | 5 | 4
OC(CNCCc1c[nH]c2ccccc12)C(F)(F)F (stereo not drawn) | 0 | 4687 | 5 | 11 | -19 | 6 | 14
CSc1nnc(C)c(=O)n1COC(=O)c1ccccc1 | 6 | 5973 | -2 | 5.2 | -29 | 11 | -1
CC(=O)NC(CC(=O)NNC(=O)c1cccs1)c1ccccc1 (stereo not drawn) | 6 | 3736 | 6 | -1.7 | -8 | 10 | 11
O=C(CC1C(=O)NCCN1C(=O)Nc1ccccc1)Nc1ccc(F)cc1 (stereo not drawn) | -1 | 4628 | 11 | 2.1 | -9 | -4 | -14
CSc1ncc(/C=C2/C(=O)NC(=O)N(c3ccc(Cl)cc3)C2=O)cn1 | . | 4335 | 4 | 3.5 | -16 | 2 | -3
Cc1ccc(-n2ncc(Br)c(Br)c2=O)cc1 | -9 | 4371 | -2 | -1.7 | 0 | 15 | 9
Cn1cc(CNC(=O)C23CC4CC(CC(C4)C2)C3)cn1 | -6 | 3911 | 1 | -0.1 | -10 | 7 | 4
COC(=O)c1ccc(S(=O)(=O)N2CCCN(Cc3ccc(F)cc3)CC2)n1C | 5 | . | 9 | 4.5 | -14 | 8 | 8
O=C(NNC(=O)c1ccc(-c2ccccc2)cc1)Nc1ccc(F)cc1F | 8 | 5581 | 6 | 2.6 | -9 | -2 | -8
COc1ccc2ccccc2c1C1CC(=O)N2CN(Cc3ccco3)CSC2=C1C#N (stereo not drawn) | -8 | 5462 | 9 | -6.1 | -56 | 4 | 7
COc1ccc(C2C(=O)N(C3CCCCCC3)CC(=O)N2Cc2ccccc2)cc1OC (stereo not drawn) | -13 | 19721* | -1 | 0.9 | -15 | 1 | 3
O=P(OC1CCCCC1)(OC1CCCCC1)C(O)c1c(Cl)cccc1Cl (stereo not drawn) | -1 | 17127* | -18 | 13 | -7 | 9 | 4
ON=C1CCN(c2ncc(C(F)(F)F)cc2Cl)CC1 | 9 | 4464 | 10 | 9.1 | -22 | 6 | 0
CC(=O)Nc1ccc(S(=O)(=O)NCc2ccc3c(c2)cc(C)n3C)cc1 | 4 | 1283 | -3 | -14 | -9 | 0 | 4
Cc1cc(=O)n(C)c(=O)n1CCCCCCOc1ccc([N+](=O)[O-])cc1 | 2 | . | -1 | 0.5 | . | 7 | 15
COc1cc2c(c(OC)c1OC)-c1c(cc3c(c1OC)OCO3)C[C@H](C)[C@@](C)(O)C2 | 0 | 6204 | . | . | -15 | . | .
Cc1ccc(C(=O)NN2C(=O)/C(=C/c3cn(C)c4ccccc34)SC2=S)cc1 | . | 2904 | -5 | 18 | 7 | 6 | 4
O=C(NN=Cc1cccn1-c1ccccc1)c1ccncc1 | . | . | 4 | 4.0 | . | . | .
Cc1ccccc1NC(=O)c1ccc(S(=O)(=O)C(F)F)cc1 | 0 | 2785 | 5 | 2.3 | -34 | 4 | 17
O=C(CNC(=O)c1cccc(Cl)c1)NN=C/C=C/c1ccccc1 | . | . | 9 | -3.3 | . | 13 | 3
CC1CCCCN1C(=O)NC12CC3CC(CC(C3)C1)C2 (stereo not drawn) | 2 | 22908* | -6 | 4.6 | -11 | 7 | 5
COC(=O)C1C(c2ccc(OC)cc2)C(C(=O)OC)S(=O)(=O)C(CCN2CCCCC2)S1(=O)=O (stereo not drawn) | 2 | 4010 | 2 | 3.2 | 0 | 2 | 0
CCC(C)(C)n1nnnc1CN1CCN(c2nc3cc(OC)ccc3cc2C#N)CC1 | 29 | 2794 | -8 | 4.5 | -29 | 6 | 7
COc1ccc(Nc2c3c(nc4c(-c5ccccc5)c(C)nn24)CCC3)cc1 | 1 | 2060 | -7 | -6.7 | -4 | -8 | -12
O=C(NCc1cccnc1)c1ccc(COc2ccc(Cl)cc2Cl)o1 | 4 | 4366 | 0 | 8.5 | -20 | 3 | 8
Cc1nn(C)c(C)c1P(=S)(c1c(C)nn(C)c1C)N(C)C | 3 | 9905 | -3 | 5.2 | 2 | -7 | 11
O=C(CSc1nc(-c2ccco2)cc(C(F)(F)F)n1)NCc1cccs1 | -9 | 2233 | 17 | 0.4 | -14 | 3 | 6
O=C1Cc2ccccc2C(=O)N1OCc1ccc(Cl)cc1Cl | 1 | 4611 | . | . | -25 | . | .
CCOC(=O)N1CCN(c2cc(N)c([N+](=O)[O-])cc2F)CC1 | 3 | 20374* | -4 | 3.4 | -34 | 7 | 6
O=C(c1ccc(N2C(=O)C3C4CC(C(Br)C4Br)C3C2=O)cc1)N1CCCCC1 (stereo not drawn) | -17 | 4518 | 6 | 0.6 | -16 | 6 | -3
COCCN(C(=O)CCC(=O)Nc1ccccn1)C(C(=O)NCCC(C)C)c1ccc(OC)cc1 (stereo not drawn) | 1 | 4418 | -5 | -3.4 | -14 | . | .
O=C(Nc1ccc(OCC(=O)N2CCOCC2)cc1)c1cc(F)c(F)cc1Cl | -8 | 3639 | 9 | 4.1 | -14 | -1 | 6
CN1/C(=C\C=C(/C#N)C(=O)Nc2ccccc2F)C(C)(C)c2ccccc21 | -1 | 2401 | 5 | 2.8 | -11 | -13 | 3
CC(C)c1ccccc1NC(=S)N1CCN(Cc2ccc3c(c2)OCO3)CC1 | -15 | 3339 | -5 | 0.8 | -12 | 2 | 1
OCCC1CN(Cc2cc3c(cc2Cl)OCO3)CCN1C1CCCC1 (stereo not drawn) | 20 | 3331 | 5 | 4.0 | -41 | 6 | 7
COC(=O)c1ccc(NC(=O)c2c(Br)cnn2C)cc1 | 10 | 3755 | 18 | 6.2 | -14 | -4 | 4
Cc1nn(CCOc2ccc(Br)cc2)c(C)c1[N+](=O)[O-] | -9 | 4335 | 0 | -5.4 | -14 | 15 | -7
Cc1cc(C)c2cc(CN(CCO)Cc3nnnn3Cc3ccccc3)c(=O)[nH]c2c1 | -6 | 3033 | -10 | 4.3 | -9 | 3 | 6
Cc1nc(C)n(CCNS(=O)(=O)c2ccc(C)c(C)c2)n1 | -12 | 5715 | -4 | 4.0 | -11 | -1 | -4
CCNS(=O)(=O)c1ccc(CCC(=O)N2CCN(c3cc(Cl)ccc3C)CC2)cc1 | 2 | 4157 | 3 | 11 | -9 | 6 | -4
Cc1nn(C2CCS(=O)(=O)C2)c(C)c1C=O (stereo not drawn) | -4 | 3292 | 0 | 3.3 | -19 | -2 | 0
CC(c1n[nH]c(=S)n1-c1ccc(F)cc1)N1CCCCC1 (stereo not drawn) | 1 | 4329 | 2 | -0.6 | -7 | 18 | 8
COc1ccc(-n2cc(CNC(C)c3ccncn3)c(-c3cccc(F)c3)n2)cc1 (stereo not drawn) | 11 | 4813 | 2 | 0.0 | -34 | -11 | 1
COC(=O)C1=C(C)NC(=O)NC1c1ccc2c(c1)OCO2 (stereo not drawn) | -10 | . | 3 | 8.9 | -10 | 14 | 2
NS(=O)(=O)c1ccc(NC(NC(=O)c2cccnc2)C(Cl)(Cl)Cl)cc1 (stereo not drawn) | -7 | 3659 | 7 | 3.7 | -17 | 1 | -4
O=C(O)Cc1ccc(Oc2ncc(C(F)(F)F)cc2Cl)cc1 | 4 | 3937 | 5 | 6.2 | -2 | -1 | -4
Cc1ccc(NC(=O)CN(C)C(=O)Cn2ccsc2=N)cc1 | -8 | 5336 | . | . | -51 | . | .
O=C(CC1CCCCC1)NCc1ccco1 | 14 | 4325 | -1 | 4.7 | -14 | . | .
O=C(CN1C(=O)c2cccc([N+](=O)[O-])c2C1=O)NCc1ccccc1 | 2 | 3420 | 3 | -0.5 | -19 | 5 | -8
CCOC(=O)c1c(NC(=O)CSC2=NN3CCCC(=O)N=C3S2)sc2c1CCCCC2 | -11 | 7477 | -21 | 4.8 | -10 | 3 | 1

Screens: PubChem BioAssay, several laboratories
